# From PubChem
# Lassa entry inh – blocks Lassa virus binding to or entry into cells; AID 540256; Potency, µM (series often up to 37.9 µM), without a hit: top-dose activity change, negative = inhibition, usual class: inhibitors; Lassa virus pseudotype entry inhibition, cell reporter; control for the full effect not named in the record; hit rate 1.2% among 300,000; active means well fitted inhibition curve with a large enough effect; inconclusive means small, poorly fitted or top-dose-only effect, or effect the other way; inactive means flat fitted curve, though single readings scatter; tested in HEK293 cells; also: % is scaled to controls: 0 for no effect and ±100 for the full control effect; nearly all actives have a fitted effect of over 50% in size; luciferase read-out
# NS1 inh – blocks influenza NS1 protein function. hit rate 0.4% among 270,000. S. cerevisiae slowed by influenza A NS1, growth recovery by OD600. Potency, µM (titrated, usually from 46.1 µM), for the others: at the highest dose activity, positive = more growth; active means well fitted rising curve with a large enough effect; inconclusive means small, poorly fitted or top-dose-only effect; inactive means no such curve, though single readings can be large or run the other way; also: nearly all actives have a fitted effect of over 50% in size
#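 S. cerevisiae expressing influenza A NS1, grown in glucose, washed, then diluted 1:100 into pH 6.0 -URA galactose medium with 23 nl compound. Growth recovery read as OD600; NS1-free strain serves as control.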
# Cruzain noTriton – inhibitors of Trypanosoma cruzi cruzain without detergent; purified cruzain, Z-FR-AMC fluorescence, no detergent; hit rate 2.3% among 200,000; P25779; Potency, µM, without a hit: max response, negative = inhibition, actives largely listed as inhibitors; AID 1476;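 also: plate controls were enzyme without inhibitor for no effect and buffer without enzyme for full effect; nearly all actives have a fitted effect of over 40% in size; top concentration of the series not given in the record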
# Target sequence (P25779 123-467 limits assumed): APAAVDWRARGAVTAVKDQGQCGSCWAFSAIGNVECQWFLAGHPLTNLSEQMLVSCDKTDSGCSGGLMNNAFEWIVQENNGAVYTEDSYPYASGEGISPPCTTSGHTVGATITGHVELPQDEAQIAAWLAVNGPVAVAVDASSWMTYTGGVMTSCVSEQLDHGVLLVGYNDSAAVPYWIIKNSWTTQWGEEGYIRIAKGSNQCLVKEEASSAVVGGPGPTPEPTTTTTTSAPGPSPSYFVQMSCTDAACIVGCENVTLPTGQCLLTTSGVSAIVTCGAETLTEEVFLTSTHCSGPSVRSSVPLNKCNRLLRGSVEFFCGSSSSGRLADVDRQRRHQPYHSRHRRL
#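 Detergent-free condition (0.00005% Triton X-100) in acetate buffer pH 5.5 with DTT. 1.5 nM enzyme and compound were pre-mixed 15 min, then 2 uM Z-FR-AMC substrate added; reaction progress from fluorescence change between first and third reads (60 s).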
# StopGo reporter – FMDV 2A StopGo reporter, luciferase signal; AID 1159524; human cells with a luciferase reporter of 2A StopGo recoding; control for the full effect not named in the record; Potency, µM (highest dose often 57.9 µM), without a hit: at the highest dose signal change, negative = less light; hit rate 1.2% among 410,000; active = well fitted falling curve with a large enough effect; inconclusive = small, poorly fitted or top-dose-only effect; inactive = no such curve, though single readings can be large or run the other way; tested in HEK293T cells; also: % is scaled to controls: 0 for no effect and ±100 for the full control effect; nearly all actives have a fitted effect of over 45% in size; luciferase light after 4 h
# SARS PLP yeast – SARS-CoV PLP inhibition in yeast; S. cerevisiae expressing SARS-CoV PLpro, growth rescue; control for the full effect not named in the record; Potency, µM (highest dose often 32.9 µM), for inactives: at the top dose activity, positive = growth rescue; hit rate 0.19% among 330,000; AID 485353; active means well fitted rising curve with a large enough effect; inconclusive means small, poorly fitted or top-dose-only effect; inactive means no such curve, though single readings can be large or run the other way; also: 0% is about no effect; nearly all actives have a fitted effect of over 55% in size; growth read by luminescence after 48 h
# RE007 growth inh – less growth of the S. pombe RE007 Vpr strain | Potency, µM (highest dose often 92.2 µM), for the others: at the highest dose activity change, negative = less growth | hit rate 0.21% among 360,000 | AID 651644 | S. pombe RE007 Vpr strain, BacTiter-Glo ATP luminescence, 24 h; control for the full effect not named in the record; active = well fitted falling curve with a large enough effect; inconclusive = small, poorly fitted or top-dose-only effect; inactive = no such curve, though single readings can be large or run the other way;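 also: % is scaled to controls: 0 for no effect and ±100 for the full control effect; nearly all actives have a fitted effect of over 50% in size; the assay follows cell death caused by Vpr and the record does not say whether a fall means rescue or toxicity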
#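 Fission yeast RE007 carrying one integrated HIV-1 vpr copy, seeded at OD 0.01 in PMG+AL medium with 23 nL pinned compound. Grown 24 h at 30 degrees; viability read by BacTiter-Glo luminescence after 5 min.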
# MARV entry inh – Marburg virus entry inhibition; Marburg virus pseudotyped entry inhibition, cell reporter; control for the full effect not named in the record; about a third of the inactives were read at about 46 µM; Potency, µM (highest dose often 37.8 µM), for the others: at the highest dose activity change, negative = inhibition, most hits filed as inhibitors; hit rate 1.8% among 300,000; AID 540276; active = well fitted inhibition curve with a large enough effect; inconclusive = small, poorly fitted or top-dose-only effect, or effect the other way; inactive = flat fitted curve, though single readings scatter; tested in HEK293 cells; about a fifth of its hits are not listed in these tables; also: % is scaled to controls: 0 for no effect and ±100 for the full control effect; luciferase read-out
# Cruzain Triton – blocks cruzain activity in presence of Triton detergent | hit rate 0.43% among 200,000 | Potency, µM, for inactives: max response, negative = inhibition, usual class: inhibitors | purified cruzain, Z-FR-AMC fluorescence, 0.01% Triton | P25779 | AID 1478;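 also: plate controls were neutral wells for no effect and buffer without enzyme for full effect; nearly all actives have a fitted effect of over 40% in size; top concentration of the series not given in the record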
#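 Z-FR-AMC hydrolysis (2 uM substrate) by cruzain (1.5 nM) monitored kinetically at ex 360/em 450 nm after 15 min room-temperature compound exposure; 0.01% Triton X-100, pH 5.5, 5 mM DTT.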
# * = called active by the depositor; ? = inconclusive; · = no result given; [ ] = dose if it differs, or a comment. Unless noted, calls follow the shape of the dose curve; as a rule, active = well fitted curve in the direction sought with a large enough effect; inconclusive = small, poorly fitted or top-dose-only effect, or another doubt; inactive = no such curve, though single readings can be large; an effect the other way counts as inactive or inconclusive. Potency is read from the fitted curve at half-maximal effect.
structure	Lassa entry inh	NS1 inh	Cruzain noTriton	StopGo reporter	SARS PLP yeast	RE007 growth inh	MARV entry inh	Cruzain Triton
CCOC(=O)c1c(C)c(-c2ccccc2)n(CC(=O)Nc2cc(C)cc(C)c2)c1C	·	·	-1%	-18%	·	·	21%[46.1 µM]	-1.4%
CC(C)COc1ccc(/C(=N/O)c2ccccc2)cc1	-23%	2%	-5%	·	-20%	3%	1%	-18%
CC(=O)Nc1ccc(S(=O)(=O)N2CCC(C(=O)Nc3nccs3)CC2)cc1	·	-1%	·	-11%	6%	2%	·	·
Cc1cc(C(=O)COC(=O)C2=NNC(=O)CC2)c(C)n1-c1cccc(C(F)(F)F)c1	-8%	3%	17%	-25%	-4%	11%	-13%	-3.1%
CCN(C(=O)COC(=O)c1cccc(S(=O)(=O)N(CC)CC)c1)C1CCS(=O)(=O)C1 (centres undefined)	1%	5%	·	-24%	-3%	9%	12%	·
COc1ccc(S(=O)(=O)Nc2cccc(F)c2)cc1C	·	3%	·	62%[activator]	1%	0%	·	·
CC(C)c1ccccc1NC(=O)CSc1nnc(COc2ccccc2)o1	6%[46.1 µM]	·	7%	-3%	·	·	3%[46.1 µM]	-5.7%
O=C1C=C(Nc2ccc(Cl)cc2)CC(c2ccco2)C1 (centres undefined)	?	-4%	-22%	-23%	2%	12%	-16%	-5.4%
COc1ccc(C=O)cc1CSc1nnc(COc2cccc3cccnc23)o1	-9%	-53%	-1%	-11%	-14%	-24%	-4%	-3.5%
COc1ccc2nc(CNC(=O)C3CCC(=O)N(CCc4ccccc4)C3)[nH]c2c1 (centres undefined)	2%	11%	·	-18%	0%	-7%	7%	·
O=C(Nc1ccnn1C1CCN(Cc2ccc(F)cc2)CC1)C1CC1	·	0%	·	13%	2%	16%	·	·
O=C(NCC1OCCc2ccccc21)c1ccc(NC(=O)c2ccc(Cl)cc2Cl)cc1 (centres undefined)	-19%	12%	?	?	26%	-9%	-28%	4.4%
CCC(=O)C1=C(c2ccc(F)cc2)N(C(=O)CC)n2c(nnc2-c2ccc(OC)cc2)S1	?	·	-13%	?	·	·	·	1.8%
CCOC(=O)c1sc2nc(C)nc(NCc3ccc(Cl)cc3)c2c1C	?	-13%	·	?	-1%	16%	-20%	·
Cc1oc(-c2ccc(Cl)cc2)nc1CS(=O)CC(=O)NC1CC1 (centres undefined)	·	18%	·	-11%	3%	1%	·	·
CCOc1ccc(C(=O)/C=C/c2cn(CC(O)CN3CCc4ccccc43)c3ccccc23)cc1 (centres undefined)	?	·	6.3µM*	-14%	·	·	?	-2.8%
N#CC1(c2ccccc2)CCCN1C(=O)c1ccc(Br)cc1 (centres undefined)	3%	-5%	5%	-21%	4%	-24%	-8%	0.4%
O=C(Nc1ccc(F)cc1)N1CCCN(c2nccc(C(F)(F)F)n2)CC1	·	4%	·	-13%	0%	-6%	·	·
Cc1cnc(NC(=O)CSc2nnc(-c3ccccc3)o2)s1	-15%	3%	5%	24%	-3%	12%	?	0.4%
COc1ccc(Nc2nc(-c3ccccc3F)nc3ccccc23)cc1OC	?	-5%	-6%	?	-6%	1%	·	-4.2%
CC(C)(C)NC(=O)C(=O)NNC(=O)c1cccc(F)c1	28%	·	·	27%	-2%	51%	?	·
Cc1ccc(S(=O)(=O)N2Cc3ccccc3CC2C(=O)Nn2cnnc2)cc1 (centres undefined)	10%	-1%	3%	-6%	-3%	5%	10%	-1.6%
c1ccc(COn2nnc3ccccc32)c(COn2nnc3ccccc32)c1	-1%	-61%	-8%	·	-16%	3%	?	-2.4%
N#CCCN(CCC#N)S(=O)(=O)c1ccc(C(=O)Nc2nnc(C3=COCCO3)o2)cc1	·	0%	·	2%	-4%	2%	·	·
Cc1cccc(Nc2nc(N)nc(CN3CCC(C(N)=O)CC3)n2)c1C	6%	-2%	-12%	-6%	1%	7%	11%	4.5%
COc1ccc(C(=O)CN2CCN(c3ccc(F)cc3)CC2)cc1	·	-2%	·	-7%	-1%	8%	·	·
O=C(NCCCn1ccnc1)/C(=C\c1cccs1)NC(=O)c1cccs1	26%	·	·	38%[activator]	0%	-9%	?	·
COc1ccc(CNC(=O)C(C)n2nc(C)c3sc4ccccc4c3c2=O)cc1OC (centres undefined)	-6%[46.1 µM]	·	-2%	?	·	·	-6%[46.1 µM]	-2.5%
COc1ccc(Nc2cc(C(=O)NCCCN3CCN(C)CC3)c3ccccc3n2)cc1	0%	-8%	-12%	6%	1%	-2%	?	-8.8%
COC(=O)c1oc2ccccc2c1NC(=O)CN1CCCC1	-2%	4%	-7%	·	-4%	-9%	2%	-12%
O=C(NCC(=O)N(c1cccc(F)c1)C(C(=O)NC1CCCC1)c1ccncc1)c1ccco1 (centres undefined)	-6%	-13%	·	-5%	-13%	-5%	-24%[46.1 µM]	·
Cn1nnnc1SCCNCc1ccc(Cl)c(Cl)c1	7%[46.1 µM]	·	-8%	-1%	·	·	7%[46.1 µM]	-1.4%
c1ccc2[nH]c(CSc3nccs3)nc2c1	16%	2%	-9%	35%[activator]	-6%	-3%	3%	-11%
CCN(CC)CCNC(=O)C1c2cc(OC)c(OC)cc2C(=O)N2CCc3ccccc3C12 (centres undefined)	8%	-2%	-5%	-9%	-4%	-11%	0%[46.1 µM]	3.0%
COc1cc(OC)cc(-n2nc(C(=O)N3CCC4(CC3)OCCO4)c3ccccc3c2=O)c1	11%	-18%	11%	4%	-1%	11%	-7%	-0.2%
COC(=O)c1cc(NS(=O)(=O)c2ccc(NCc3cccnc3)c(N)c2)cc(C(=O)OC)c1	-6%	?	3%	9%	2%	3%	?	3.1%
COc1ccc2cc3cc(C(=O)Nc4ccccc4N4CCN(C)CC4)oc3nc2c1	13%	-44%	-8%	?	-3%	6%	-17%	-23%
CC1=C(C(=O)OC(C)C)C(c2ccc(Br)s2)NC(=O)N1 (centres undefined)	14%	-5%	0%	·	4%	4%	-28%	-7.3%
NC(=O)COC(=O)c1cc(Cl)cc(Cl)c1N	13%[46.1 µM]	-11%	·	-17%	-1%	3%	?	·
COc1ccc(CNCC(=O)N2CCC3(CC2)OCCO3)cc1	-7%	-2%	-2%	·	0%	6%	2%	4.6%
COc1ccccc1-c1nnc(SCC(=O)Nc2c(Cl)cccc2Cl)o1	-1%	-9%	1%	15%	3%	-16%	2%	1.6%
COc1cccc(C(c2nnnn2CCc2ccccc2)N2CCN(c3ccccc3)CC2)c1OC (centres undefined)	?	-14%	-2%	8%	-41%	0%	?	-3.1%
C=C(C)CNC(=S)NNC(=O)c1ccco1	-1%	4%	5%	·	3%	3%	10%	10.0%
COc1cc2c(cc1N/C=C(\C#N)c1nc(-c3ccc(F)cc3)cs1)oc1ccccc12	20%[46.1 µM]	0%	·	-11%	0%	-4%	-1%[46.1 µM]	·
Cc1cccc(OCC(=O)Nc2ccc3c(c2)OCO3)c1C	7%	-35%	-4%	0%	-10%	?	1%[46.1 µM]	-5.1%
CN(Cc1cccs1)C(=O)CNC(=O)c1ccco1	·	22%	·	35%[activator]	0%	11%	·	·
O=C(NC1CCCCC1)c1ccc(-n2cncn2)c([N+](=O)[O-])c1	0%	·	·	3%	3%	-12%	-5%	·
CC(=C/c1ccco1)/C=N/N1CCN(c2ccccc2)CC1	1%	5%	?	-12%	-8%	0%[3.69 µM]	-23%	0.8%
Cc1cccc(C)c1OCc1cc(C(=O)N2CCN(c3ccccc3)CC2C)no1 (centres undefined)	?	6%	·	-11%	3%	1%	13µM*	·
Nc1nc(Nc2ccccc2)nc(N2CCOCC2)c1[N+](=O)[O-]	?	-1%	1%	-9%	12%	8%	-46%	-10.0%
CCOc1ccc(Nc2n[nH]c(=S)s2)cc1	?	6%	-6%	-3%	-10%	-1%	-23%	-8.4%
COc1ccc(-c2cc(C)nc3nc(N)nn23)cc1	0%	1%	2%	-2%	7%	-6%	-5%	-4.3%
COc1ccc(OCc2cc(C(=O)NCc3nc(C)cs3)no2)c(Cl)c1	-22%	-10%	·	46%[activator]	-11%	-12%	-8%	·
O=C(NC1CC2CCC1C2)c1ccc(CN2CCOCC2)cc1 (centres undefined)	12%	1%	-5%	24%	-3%	-2%	2%	6.2%
Cc1[nH]c2ccccc2c1C(=O)COc1ccccc1F	21%	-5%	·	47%[activator]	-1%	40%	1%[46.1 µM]	·
Cc1cc(NC(=O)CN2CCCCC2)no1	-3%	·	·	-16%	2%	-19%	-17%[46.1 µM]	·

# Reformatted with two lines to a compound: entries from further up
# Each structure is followed by: Lassa entry inh, NS1 inh, Cruzain noTriton, StopGo reporter, SARS PLP yeast, RE007 growth inh, MARV entry inh, Cruzain Triton
COc1ccc(Nc2nc(-c3ccccc3F)nc3ccccc23)cc1OC
    ?, -5%, -6%, ?, -6%, 1%, ·, -4.2%
CC(C)(C)NC(=O)C(=O)NNC(=O)c1cccc(F)c1
    28%, ·, ·, 27%, -2%, 51%, ?, ·

# Four records picked at random from the list so far, as already listed:
structure	Lassa entry inh	NS1 inh	Cruzain noTriton	StopGo reporter	SARS PLP yeast	RE007 growth inh	MARV entry inh	Cruzain Triton
Cc1cc(NC(=O)CN2CCCCC2)no1	-3%	·	·	-16%	2%	-19%	-17%[46.1 µM]	·
Nc1nc(Nc2ccccc2)nc(N2CCOCC2)c1[N+](=O)[O-]	?	-1%	1%	-9%	12%	8%	-46%	-10.0%
COc1ccc(OCc2cc(C(=O)NCc3nc(C)cs3)no2)c(Cl)c1	-22%	-10%	·	46%[activator]	-11%	-12%	-8%	·
Cc1cccc(C)c1OCc1cc(C(=O)N2CCN(c3ccccc3)CC2C)no1 (centres undefined)	?	6%	·	-11%	3%	1%	13µM*	·
